High-throughput results deposited in PubChem BioAssay by Broad Institute.
Ran importin = RanGTP/importin-beta interaction disruptors – biochemical, CFP-Ran/YFP-importin-beta FRET, RCC1, cell-free, primary screen (AID 434961); CFP-Ran/YFP-importin-beta FRET, cell-free; stronger effect = higher value; 0.2% of 7,700 active; inhibition, %;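 active = more than half of the replicate wells above 15% inhibition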;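 also: 0% = DMSO wells and 100% inhibition = RanGDP control wells on each plate; stock of unstated strength diluted about 400-fold; mean of two wells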
* hit, by the source's call. Not all compounds are listed; rates above refer to the full screens.

SMILES | Ran importin
Cc1ccc(OC(=O)N(C)C[C@@H]2OCc3cnnn3CCCC(=O)N([C@@H](C)CO)C[C@@H]2C)cc1 | 4.2
Cc1ccc(OC(=O)N(C)C[C@@H]2OCc3cnnn3CCCC(=O)N([C@H](C)CO)C[C@@H]2C)cc1 | 4.5
Cc1ccc(OC(=O)N(C)C[C@H]2OCc3cnnn3CCCC(=O)N([C@@H](C)CO)C[C@@H]2C)cc1 | 12.5

Retrieved one by one from above (2):
SMILES | Ran importin
Cc1ccc(OC(=O)N(C)C[C@@H]2OCc3cnnn3CCCC(=O)N([C@@H](C)CO)C[C@@H]2C)cc1 | 4.2
Cc1ccc(OC(=O)N(C)C[C@@H]2OCc3cnnn3CCCC(=O)N([C@H](C)CO)C[C@@H]2C)cc1 | 4.5
